Source: PubChem (ICCB-Longwood Screening Facility, Harvard Medical School)
MgrA-DNA mod = modulators of Staphylococcus aureus MgrA DNA binding; fluorescence polarization; inhibition, %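 (about 10 µg/mL by stock and volumes)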; hit rate 0.13% among 84,000; AID 602314;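 active means above 50% in either of two replicates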;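 further: 0% = protein plus DNA without compound and 100% = DNA alone without protein; higher means less MgrA bound to DNA so lower polarization; one replicate is shown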
Sa helicase inh = S. aureus DNA helicase inhibition. purified S. aureus helicase, fluorescence unwinding assay; about half of the hits fall short of the stated cut. inhibition, %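 (tested at about 80 µM)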. hit rate 0.05% among 120,000. AID 485395;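 active means both duplicates at 50% or more, or one of them with a favoured structure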;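 further: 0% = mean of negative control wells and 100% = mean of positive control wells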
Starred values were filed as active, the others as inactive; nt = no result given; & = joins results of further samples.

Sa helicase inh,MgrA-DNA mod,compound
-21.0,0.2,c1ccc(N2CCN(CCc3nnc4n3CCCCC4)CC2)cc1
2.0,nt,O=C1CSC(=S)N1CCCCCCN1C(=O)CSC1=S
8.0,nt,CCOc1nc2ccccc2nc1NS(=O)(=O)c1ccccc1
12.0,nt,CCN=C1NN=C(c2cc(C)n(Cc3ccco3)c2C)CS1
10.0,1.6,Cc1ccc(S(=O)(=O)N(C)CC(=O)Nc2cccnc2)cc1
-2.0,17.4,Fc1ccc(CNc2ccc(N3CCCC3)cc2)cc1
-7.0,-2.6,COc1cccc(CO)c1OCc1ccccc1F
0.0,nt,CCCCNC(=O)CC1NCCNC1=O (stereo unspecified)
nt,-2.5,COc1ccc2c(C)nc(NC3=NC(C)(C)CC(C)=N3)nc2c1
14.0,nt,COc1ccc(OC)c(S(=O)(=O)N2CCc3cc(OC)c(OC)cc3C2)c1
6.0,nt,Nc1c(C(=O)c2ccccc2)sc2nc3c(cc12)CCC3
4.0,nt,CCCNC(=O)c1ccc2c(c1)c(C)c(C)n2CC
5.0,1.2,COC(=O)c1c(C)oc2ccc(OCc3ccccc3C)cc12
2.0,3.2,CC(=O)Nc1ccc2c(c1)CN(C1CCCCC1)CO2
-6.0,1.1,COC(=O)c1sccc1NC(=S)Nc1ccccc1
-10.0,nt,N#Cc1ccc(Oc2c(Cl)cncc2Cl)cc1
1.0,nt,O=C1CCCN1C(=O)CSc1nc2ccccc2n1-c1ccccc1
9.0,3.4,Cc1ccc(Cn2c(N)nc3ccccc32)cc1
-7.0,nt,c1ccc(-n2ncc3c(NCc4cccs4)ncnc32)cc1
33.0,nt,O=C(COc1ncnc2sc3c(c12)CCCC3)NC1CCS(=O)(=O)C1 (stereo unspecified)
12.0,nt,CCn1nnc2c(N(Cc3ccccc3)Cc3ccccc3)ncnc21
9.0,nt,O=C(COc1ccccc1Br)N1CCCCCC1
9.0,-0.6,O=C(COc1ccccc1)NCc1nc2ccccc2n1Cc1ccc(Cl)cc1
-3.0,nt,N#Cc1ccc(COC(=O)CCc2nnc(-c3ccccc3)o2)cc1
16.0,2.0,CC(C)(CCl)Nc1nc2ccccc2s1
10.0,nt,COc1cc(OC)cc(-c2nc(=S)n3ccsc3n2)c1
18.0,-3.8,CCOC(=O)c1[nH]c(C)c(C(=O)C(C)C)c1C
11.0,1.2,COC(=O)c1cc(C)sc1NC(=S)NC(C)c1cn(C)nc1C (stereo unspecified)
0.0,nt,O=C1c2ccccc2C(=O)N1CCN1CCN(c2ncc(C(F)(F)F)cc2Cl)CC1
4.0,nt,Cc1cc(C)c2sc(=NC(=O)CN3C(=O)CCC3=O)n(C)c2c1
nt,10.4,COc1ccc(C=C2C(=O)OC(C)(C)OC2=O)c(Cl)c1OC
-16.0,1.3,COc1ccccc1OCC(=N)N
1.0,-1.5,Cc1oc(C(C)(C)C)cc1C(=O)NCCO
nt,-0.9,CCOC(=O)c1cnn(C(=O)Cc2ccsc2)c1N
12.0,nt,O=C1OCCC1(CCO)c1ccccc1 (stereo unspecified)
nt,-1.1,O=C1CCC(=O)N1CN1CCC(CCCC2CCN(CN3C(=O)CCC3=O)CC2)CC1
14.0,nt,COc1ccc(Sc2nncc3nnn(-c4ccc(Cl)cc4)c23)cc1
-3.0,1.4,COC(=O)c1ccc2c(=O)n(CC3CCCO3)c(SCC(=O)Nc3ccccc3Cl)nc2c1 (stereo unspecified)
2.0,nt,CC1CC(=O)N(CC(N)=O)c2ccccc2S1 (stereo unspecified)
21.0,nt,O=C(CCC(=O)n1ncc2ccc(Cl)cc21)NCc1cccnc1
-4.0,-1.2,Oc1ccccc1N=Cc1ccc2ncccc2c1
9.0,-1.1,COc1ccc2[nH]c3c(=O)n(CC(=O)NC4CCCCCC4)c(=S)[nH]c3c2c1
-6.0,10.2,O=C(NC12CCC(O)C(SC1)C2O)c1ccccc1 (stereo unspecified)
24.0,nt,Cc1cccc(NC(=O)c2cc3c([nH]c2=O)CCCC3=O)n1
nt,-0.8,CC(=O)Nc1ccccc1OCc1cnc(Cl)s1
8.0,nt,CC(C)c1ccc(NC(=O)COC(=O)c2ccc[nH]c2=O)cc1
nt,0.9,Nc1c2ccccc2nc2c(O)cccc12
2.0,nt,CSc1nnc(NC(=O)c2ccco2)s1
6.0,-1.8,C=CCN(CC=C)C(=O)c1ccc(I)cc1
nt,-0.8,CCOC(=O)c1cc(-c2csc(Nc3ccccc3)n2)on1
3.0,0.6,Cc1cc(C)cc(NC(=O)N2CCOc3ccc(C)cc32)c1
3.0,-2.5,CCc1ccc(C(=O)N2CCN(c3ccc(N)cc3)CC2)cc1
16.0,nt,C/C(=N\OCC(=O)Nc1nc2ccccc2s1)c1cccs1
10.0,-1.7,C=C(C)c1cccc(C(C)(C)NC(=O)N2CCC(C)CC2)c1
-29.0,nt,CCS(=O)(=O)N1CCN(Cc2noc(CCC(=O)N3CCCCC3)n2)CC1
3.0,nt,CCOC(=O)c1oc2c(CN3CCCCC3C)c(O)ccc2c(=O)c1-c1ccc(OC)c(OC)c1 (stereo unspecified)
4.0,-0.2,O=C(Cn1cc(/C=N/NC(=S)Nc2ccccc2)c2ccccc21)NCc1ccco1
-7.0,nt,N#Cc1ccc(-c2c(NC(=O)NS(=O)(=O)c3ccccc3Cl)oc(-c3ccco3)c2C#N)cc1
nt,-1.0,CCOC(=O)c1ccc2[nH]c(-c3ccccc3)cc(=O)c2c1
nt,0.8,CN(CCOc1ccc(CC2SC(=O)NC2=O)cc1)c1ccccn1 (stereo unspecified)

Further results:
Sa helicase inh,MgrA-DNA mod,compound
10.0,3.0,COc1cccc([C@H]2C(C#N)=C(N)C(C#N)(C#N)C3=CCC(C)C[C@@H]32)c1 (stereo partly specified)
3.0,nt,O=C(NCCSc1ccccn1)c1cccc(Cl)c1
4.0,nt,O=c1c(N2CCN(c3ccccc3)CC2)csc2ccccc12
8.0,nt,O=C(COC(=O)CC1CCCC1)Nc1cc(C(F)(F)F)ccc1N1CCOCC1
3.0,1.6,CCc1ccc(Nc2cc(C(=O)O)c3ccccc3n2)cc1
nt,0.4,Cn1nc(C(F)(F)F)c(CNC(=O)c2ccc(C(F)(F)F)cc2)c1N1CCOCC1
13.0,-1.5,O=C(CC(O)(c1ccccc1)c1ccccc1)Nc1ccccc1
6.0,-2.2,Cc1ccccc1N1CC(C(=O)N2CC(C)CC(C)C2)CC1=O (stereo unspecified)
-11.0,nt,CCOC(=O)/C=c1\s/c(=C\c2ccc(OC)cc2)c(=O)n1C
nt,0.6,COc1cccc2onc(N)c12
-16.0,-6.3,O=C(O)CC12CC3CC(CC(O)(C3)C1)C2
8.0,1.6,CN1/C(=C\C(=O)C(F)F)C(C)(C)c2ccccc21
30.0,nt,CCOC(=O)c1sc2nc3c(cc2c1N)COC(C)(C)C3
nt,-1.5,O=C(Nc1ccccc1-c1nc2ccccc2s1)c1ccc(-c2ccccc2)cc1
nt,2.2,O=C(c1ccc(F)cc1)C1CCN(Cc2cnc(-c3ccccc3)[nH]2)CC1
-1.0,-3.8,COc1ccc(-c2cc(=O)n(CCC#N)[nH]2)cc1
3.0,0.0,CC1=NN(c2ccccc2)C(=O)C12C1C=CC(C1)C2(C(F)(F)F)C(F)(F)F (stereo unspecified)
nt,3.0,Cc1ccccc1NC(=O)NC(=O)CC#N
nt,-2.6,COc1ccc2nc(SCC(=O)c3ccc(Cl)c(Cl)c3)[nH]c2c1
12.0,nt,Cc1nn(Cc2ccccc2)c(Cl)c1C(=O)Nc1nnc(-c2ccccc2)o1

Arranged by the number under Sa helicase inh (high to low): three of the compounds above
Sa helicase inh,MgrA-DNA mod,compound
30.0,nt,CCOC(=O)c1sc2nc3c(cc2c1N)COC(C)(C)C3
14.0,nt,COc1ccc(Sc2nncc3nnn(-c4ccc(Cl)cc4)c23)cc1
5.0,1.2,COC(=O)c1c(C)oc2ccc(OCc3ccccc3C)cc12

More results:
Sa helicase inh,MgrA-DNA mod,compound
nt,0.7,CCC(=O)Nc1ccc2c(c1)N(CC)C(C)(C)CC2C (stereo unspecified)
nt,-1.6,COC(=O)c1scc2c(Sc3ccc(Cl)cc3)cc(C(F)(F)F)nc12
14.0,-13.3,CC1(C)[C@H]2CCC1(CS(=O)(=O)N(C1CCCCC1)C1CCCCC1)C(O)C2 (stereo partly specified)
-8.0,nt,N#Cc1ccc(C(=O)N2CCN(C(=O)c3ccccc3)CC2)cc1
-6.0,nt,CCC(=O)c1c(O)ccc2c(C)cc(=O)oc12
14.0,nt,CC1C(=O)CCN(Cc2ccccc2)C1C (stereo unspecified)
-20.0,-0.2,O=C(CN1CCC(NC(=O)C2CCCCC2)CC1)Nc1cccc(F)c1
nt,-1.2,Cc1cc(C)cc(N=Cc2c(C(F)(F)F)nn(C)c2Cl)c1
6.0,4.2,CCN(CC)CCN1C(=O)c2ccccc2NC1c1ccccc1F (stereo unspecified)
-1.0,nt,CC(C)CC(=O)Nc1ccc(C(=O)COC(=O)CSc2nnc(-c3ccc4c(c3)OCO4)o2)cc1
nt,-2.8,CCOC(=O)N/N=C/c1ccccc1OCC
8.0,nt,CNC(=O)NC(=O)C(C)Oc1ccccc1-c1ccccc1 (stereo unspecified)
0.0,-3.5,CCCC(CCC)C(=O)Nc1ncc2c(n1)CCCC2=O
24.0,1.5,Cc1c(C(=O)c2ccccc2)c2ccccn2c1CCC#N
nt,-1.1,Cn1c(CSCc2nc(-c3ccc(Cl)cc3)cs2)nnc1SCC(N)=O
-2.0,nt,Cc1ccc(-c2oc(NC(=O)C3CCCC3)c(C#N)c2-c2ccc(C)cc2)cc1
2.0,-1.5,CCN(Cc1nc(-c2ccccc2)no1)C(=O)c1ccc2c(c1)OCO2
4.0,-2.0,CC(=O)C1=C(O)C=C(c2ccc(C)o2)CC1c1ccccc1 (stereo unspecified)
1.0,4.9,O=C(COc1ccc(S(=O)(=O)NCc2ccccc2)cc1)N1CCCC1
33.0,nt,Cc1ccc(C)c(-n2c(SCc3ccccc3C#N)nnc2-c2cc3sccc3n2C)c1
-10.0,nt,Cc1c2cnn(-c3ccccc3)c(=O)c2c(C)n1CCCC(=O)N1CCc2ccccc21
-9.0,nt,CCCNC(=O)Cn1nc(C)n2c(cc3ccccc32)c1=O
nt,-1.3,CSc1sc(C(=O)OCc2ccccc2)c2c1C(=O)CC(C)(C)C2
nt,-1.4,Nc1nc(-c2cc(-c3ccccc3)no2)cs1
nt,2.3,COC(=O)c1ccccc1CSc1nccc(C(F)(F)F)n1
nt,0.8,CCNc1nc(SCC(=O)NC(=O)NCc2ccccc2)nc2sc3c(c12)CCN(C)C3
-2.0,nt,O=C(NC1CCCc2ccccc21)c1ccc(S(=O)(=O)N2CCOCC2)cc1 (stereo unspecified)
10.0,-2.7,CC1CCCCN1Cc1c(C#N)c2ccccc2n1C (stereo unspecified)
-15.0,-1.2,O=C(C1CCCN1S(=O)(=O)c1ccc(Cl)cc1)N1CCc2ccccc2C1 (stereo unspecified)
-5.0,-6.7,COc1ccc(-c2oc3ccc(OC)cc3c(=O)c2O)c(OC)c1
nt,3.0,COc1cc(C(=O)Oc2ccc(N(C)C3=NS(=O)(=O)c4ccccc43)cc2)cc(OC)c1OC
-37.0,nt,O=C(O)c1ccccc1C(=O)OCCO
7.0,-2.2,O=C(N1CCCC1)N1CCC(c2ccc3c(c2)OCO3)CC1
36.0,nt,Cc1ccc2c(c1)N(C(C)C(=O)NCc1cccs1)C(=O)CO2 (stereo unspecified)
-2.0,3.3,Cc1ccccc1C(=O)C(C#N)c1nc2ccc(C(F)(F)F)cc2s1 (stereo unspecified)
-10.0,nt,COC(=O)CSc1nc2sc3c(c2c(=O)n1CC1CCCO1)CCCC3 (stereo unspecified)
nt,-1.7,CCCN1C(=O)c2ccccc2C(C(=O)O)C1c1ccc(OC)cc1 (stereo unspecified)
12.0,nt,CCOC(=O)c1ccc(NC(=O)CSc2ncc(S(=O)(=O)c3ccccc3)c(=O)[nH]2)cc1
nt,0.7,CCOC(=O)/C(C#N)=C/Nc1ccccc1Cl
nt,-0.2,O=C(NCC(c1ccccc1)c1c[nH]c2ccccc12)C(F)(F)F (stereo unspecified)
6.0,2.2,Cc1ccc(CNC(=O)Cc2ccc(-n3c(=O)c4sccc4n(Cc4ccccc4)c3=O)cc2)cc1
-6.0,-0.3,CCCn1cc(S(=O)(=O)c2ccc(C)cc2)c(=O)c2cc(F)c(N3CCN(CC)CC3)cc21
-8.0,nt,Cc1ccc(S(=O)(=O)N2CCCC(C(=O)O)C2)cc1 (stereo unspecified)
-1.0,1.6,O=S1(=O)N=C(N(Cc2cccs2)c2ccc(O)cc2)c2ccccc21
6.0,nt,Cc1cc(O)cc(=O)[nH]1
nt,4.8&1.1,CC(C)NCC(O)COc1cccc2[nH]ccc12 (stereo unspecified)
3.0,2.3,Cc1ccc(C#N)c(SCc2nnc(-c3ccc(Cl)cc3)o2)n1
11.0,-1.4,CCOc1nc(NC(=O)NC(=O)c2cccs2)nc(-c2ccccc2)n1
4.0,-0.6,CSc1ccccc1NC(=O)C1C2CCC(C2)C1C(=O)O (stereo unspecified)
13.0,-1.0,COc1ccccc1Nc1ncc(C(=O)NCCCN2CCC(C)CC2)c2ccccc12
-22.0,nt,CCOC(=O)CSc1nc2ccccc2s1

Part of the list above in order of count of non-hydrogen atoms, smallest number first.
Sa helicase inh,MgrA-DNA mod,compound
6.0,nt,Cc1cc(O)cc(=O)[nH]1
nt,4.8&1.1,CC(C)NCC(O)COc1cccc2[nH]ccc12 (stereo unspecified)
-8.0,nt,Cc1ccc(S(=O)(=O)N2CCCC(C(=O)O)C2)cc1 (stereo unspecified)
-1.0,1.6,O=S1(=O)N=C(N(Cc2cccs2)c2ccc(O)cc2)c2ccccc21
11.0,-1.4,CCOc1nc(NC(=O)NC(=O)c2cccs2)nc(-c2ccccc2)n1
6.0,2.2,Cc1ccc(CNC(=O)Cc2ccc(-n3c(=O)c4sccc4n(Cc4ccccc4)c3=O)cc2)cc1

This is a subset; rates above refer to the full screens.
